Sa RN4220 lethal = kills Staphylococcus aureus RN4220. S. aureus RN4220 growth, OD600, 16 h. inhibition, % (no concentration beside the values). hit rate 0.33% among 330,000;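 active = z-score of -3 or lower and OD600 up to 0.18 on both plates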;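 note: plate controls were untreated cells for no effect and reference antibiotic for full effect; stock transfer was 100 nL into about 80 µL; one replicate is shown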
Bead autofluor = flagged as autofluorescent in microsphere protease counterscreen. compound autofluorescence counterscreen, microsphere flow cytometry; active compounds read high. fluorescence intensity (concentration not given with the values). hit rate 3.1% among 360,000. AID 624483;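 active = at least 3 SD above the mean of all compounds, about 16000 in these data; inconclusive = too few beads counted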;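 note: 100 nL of 1 mM stock went into each well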
Mtb hypoxia rep = inhibitors of hypoxia-regulated fluorescent reporter in Mycobacterium tuberculosis; M. tuberculosis hypoxia-regulated fluorescent reporter, fluorescence; fluorescence inhibition, % (test concentration not listed); hit rate 0.1% among 300,000; AID 1159583;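 active = 35 to 45% if threefold the growth effect, above 45% if 1.5-fold the growth effect; inactive = the rest, general growth blockers included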;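 note: wells of about 50 µL received 100 nL stock; 0% = vehicle wells and 100% = reference inhibitor wells; whole bacteria with a GFP reporter of the hypoxia response; strong numbers were not always called active; many hits fall short of the cut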
BJeLR viability = kills HRASV12-expressing BJeLR cells. BJeLR (HRASV12) viability, CellTiter-Glo ATP luminescence, 48 h; reference of the scale not given here. hit rate 0.17% among 300,000. inhibition, % (concentration not given with the values);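 active = replicate mean above 50%; inconclusive = above 50% but judged a plate artefact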;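 note: 50 nL library stock added to about 25 µL; numbers are from one replicate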
ugtP null kill = growth inhibition of S. aureus ugtP deletion strain | S. aureus RN4220 ugtP deletion, OD600 growth, 16 h; some inactives read as strong as hits | growth inhibition, % (concentration not given with the values) | hit rate 0.54% among 330,000 | AID 1259309;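 active = z-score under -3 and OD600 up to 0.15 on both plates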;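 note: plate controls were untreated wells for no effect and antibiotic for full effect; wells of about 80 µL received 100 nL stock; the first replicate is given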
PrP 5UTR inh = suppresses PrP 5' UTR mRNA reporter expression; hit rate 0.35% among 340,000; inhibition, % (concentration not given with the values); cell-based PrP 5' UTR mRNA reporter, plate reader;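 active = every replicate at 50% or more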;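 note: 0 = median of the neutral control wells; tested in H4 reporter cells; numbers are from one replicate; inactives centre near -14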
Mtb hypoxia rep growth = second read-out of Mtb hypoxia rep, no call of its own (marks repeat the call); growth inhibition, %; measured here: M. tuberculosis growth (absorbance);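 0% = vehicle and 100% = reference antibiotic; read after six days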
The depositor's hits bear a star; ? = inconclusive; / = no result given.

Structure | Sa RN4220 lethal | Bead autofluor | Mtb hypoxia rep | Mtb hypoxia rep growth | BJeLR viability | ugtP null kill | PrP 5UTR inh
C1CCc2nc3c(nc2C1)CCCC3 | 4.1 | 5174 | / | / | -6 | 0 | -22
CCOc1cc(NC(=S)NCC2CCCO2)c(OCC)cc1NC(=O)c1ccc(F)cc1 (stereo unspecified) | 23 | 5250 | -8 | 11 | -4 | 9 | -27
CCCCn1c(CN(Cc2ccccc2)Cc2ccccc2)nc2c1c(=O)n(C)c(=O)n2C | 5.5 | 3264 | 13 | 4 | -2 | -2 | 0
CC(=NO)C1(C)N(O)C(C)(C)C(c2ccco2)=[N+]1[O-] (stereo unspecified) | 5.3 | / | -3 | 6 | / | 3 | /
C=CCc1cc(Cl)ccc1OCCOCCNC(C)CC (stereo unspecified) | 17 | 4839 | 8 | 26 | -2 | 2 | -5
CCCC(=O)c1ccc(N2CCCCCC2)c(F)c1 | 19 | 3862 | / | / | 11 | 40 | -70
O=C(c1csc2c1CCCCC2)N1CCC2(CC1)OCCO2 | 5.3 | 13184 | 18 | 5 | 8 | 5 | -11
COc1ccc2cc3cc(C(=O)N4CCCC(C)C4)oc3nc2c1 (stereo unspecified) | 5.1 | 5212 | 17 | 7 | 1 | 4 | -73
CCOC(=O)C1CCCN(c2c(N3CCN(C)CC3)c(=O)c2=O)C1 (stereo unspecified) | 5.1 | 5295 | 5 | 10 | -7 | 10 | 0
COc1ccc(CCNC(=O)CSc2nc3[nH]ncc3c(=O)n2-c2cccc(C(F)(F)F)c2)cc1OC | 8.0 | 4577 | 0 | -1 | -1 | 22 | -3
Cc1ccc(NC(=O)/C(=C\C=C\c2ccccc2)NC(=O)c2ccccc2)cc1 | / | 2441 | / | / | -1 | / | -5
Nc1nc2ccccc2n1C(=O)CCc1ccccc1 | 1.7 | 9054 | 5 | 8 | 2 | -5 | -48
O=C(O)C1CC(C(=O)O)SS1 (stereo unspecified) | 4.4 | 2866 | 5 | -4 | / | 12 | -3
Cc1c(C(=O)N2CCOCC2)oc2ccc(S(=O)(=O)N3CCCCCC3)cc12 | 3.5 | 4002 | 1 | 9 | 0 | 1 | -6
O=C(CNCc1ccc(Cl)cc1)N1CCc2ccccc2C1 | -0.6 | 4038 | 8 | -1 | -2 | 1 | -19
COc1cc(OC)c2c(-c3ccccc3)cc(=O)oc2c1C(CCN1CCOCC1)c1ccc2c(c1)OCO2 (stereo unspecified) | -1.4 | 3057 | -3 | 9 | / | -21 | 3
CCOC(=O)CCCCCN(Cc1ccccc1)S(=O)(=O)c1ccc([N+](=O)[O-])cc1 | 0.8 | 2355 | -6 | -7 | 1 | -5 | -3
COc1ccccc1CNC(=O)c1cccc(N(C)C)c1 | / | ? | / | / | -5 | / | -1
O=C(COC(=O)Cc1ccc(Cl)cc1)NCc1ccc2c(c1)OCO2 | -2.2 | 4635 | -6 | -7 | / | 2 | 0
CC1(C)CC(=O)CC(C)(C)N1OC(=O)c1ccncc1 | 4.3 | 23714* | 2 | 5 | 8 | 4 | -5
Cc1cc(OCC(=O)NCC(O)c2ccccc2)c2c3c(c(=O)oc2c1)CCC3 (stereo unspecified) | 3.6 | 5528 | 11 | 5 | 5 | 4 | -9
CCOc1cc(S(=O)(=O)NC2CC(C)(C)NC(C)(C)C2)ccc1F | 2.8 | 4223 | -4 | 7 | -4 | 4 | -3
CN1CCN(C(=O)c2ccccc2-c2nc(-c3ccc(Cl)cc3)no2)CC1 | -0.1 | 6583 | 1 | 6 | -4 | 0 | -26
COc1ccc(CCNC(=O)COC(=O)c2ccc(N3CCCC3=O)cc2)cc1OC | 2.9 | 5105 | 1 | 3 | 6 | 3 | -6
Cc1cc2oc(C(=O)Nc3nonc3C)c(C)c2cc1C | 12 | 6014 | 3 | 4 | -3 | -3 | -139
COc1cccc(CN(C)C(=O)CCNC(=O)c2ccc(Br)cc2)c1 | 2.0 | 4719 | 1 | -5 | -5 | 12 | -2
COC(=O)C[C@H]1c2cc(C(F)(F)F)ccc2S(=O)(=O)N1C1CCCC1 | / | 3421 | / | / | -1 | / | -22
COc1ccc(C(=O)Nc2cc(C)nn2-c2ccc(C)cc2)cc1 | 1.5 | 3505 | -5 | 4 | -2 | 7 | -39
COc1ccc(OC)c(C(=O)Cn2c3[n+](c4ccc(C(F)(F)F)cc42)CCCCC3)c1 | -2.9 | 3295 | -9 | 1 | -2 | -12 | -31
CC1(C)Cc2nc3oc4c(N(CCO)Cc5ccccc5)ncnc4c3cc2CO1 | -3.5 | 3827 | 2 | 4 | 4 | -6 | -21

Continued.
Second line of a record – Sa RN4220 lethal	Bead autofluor	Mtb hypoxia rep	Mtb hypoxia rep growth	BJeLR viability	ugtP null kill	PrP 5UTR inh
- COCCCN1C(=O)c2ccc(C(=O)OCC(=O)N(CCC#N)c3cc(C)cc(C)c3)cc2C1=O
  2.0	6810	3	2	4	1	-26
- CC(CN1CCOCC1)OC(=O)/C=C/c1ccccc1 (stereo unspecified)
  /	3444	/	/	7	/	-10
- Cc1cccc(OCC(=O)N/N=C/C=C/c2ccco2)c1
  /	2448	/	/	-4	/	-42
- COc1ccc2c(c1OC)C(=O)OC2n1c(O)c(N=NC(C)=O)c2ccccc21 (stereo unspecified)
  -0.5	6059	14	15	2	5	-13
- COc1ccc(C(CNC(=O)c2ccc(S(=O)(=O)N3CCCC3)cc2)N(C)C)cc1OC (stereo unspecified)
  1.7	3948	13	0	12	4	-14
- CCOC(=O)c1ccccc1NC(=O)COc1ccccc1
  12	3080	12	12	-4	25	-7
- Cc1ccc(S(=O)(=O)c2nc(S(C)(=O)=O)sc2N2CCC(C)CC2)cc1
  1.5	4396	3	4	1	9	-31
- O=C(CNC(c1ccccc1)c1ccccc1)Nc1cc([N+](=O)[O-])ccc1Cl
  -1.4	1945	1	1	3	35	-14
- N=c1oc2ccc3ccccc3c2cc1-c1nc(-c2ccccc2)cs1
  1.4	7671	-13	-12	8	-3	7
- CCOC(=O)N1CCN(C(=O)CSc2nnc(COc3ccc(Cl)cc3)o2)CC1
  2.0	4543	/	/	0	2	-14
- Cc1cccc(NC(=O)[C@@H]2CCCN2S(=O)(=O)c2ccc(Cl)cc2)c1
  1.8	8061	6	7	/	4	-39
- CCN(CC)CCN1C(=O)C(=O)/C(=C(/O)c2cnn(-c3ccccc3)c2C)C1c1ccc(C)o1 (stereo unspecified)
  -0.8	5841	-9	2	4	-3	-34
- Cn1ncc(C#N)c1/N=C/N1CCOCC1
  /	3982	/	/	4	/	-14
- O=C(c1ccc(Cl)cc1)N1CCCC(c2ccccc2)=N1
  -6.0	7502	5	-7	2	5	-24
- CC(C)(C)NC(=O)C(=O)N/N=C/c1ccc(F)cc1
  /	2764	/	/	6	/	-27

A second format for some results above.
> COCCCN1C(=O)c2ccc(C(=O)OCC(=O)N(CCC#N)c3cc(C)cc(C)c3)cc2C1=O
  Sa RN4220 lethal: 2.0 | Bead autofluor: 6810 | Mtb hypoxia rep: 3 | Mtb hypoxia rep growth: 2 | BJeLR viability: 4 | ugtP null kill: 1 | PrP 5UTR inh: -26

> CC(CN1CCOCC1)OC(=O)/C=C/c1ccccc1 (stereo unspecified)
  Sa RN4220 lethal: / | Bead autofluor: 3444 | Mtb hypoxia rep: / | Mtb hypoxia rep growth: / | BJeLR viability: 7 | ugtP null kill: / | PrP 5UTR inh: -10

The results go on.
Second line of a record – Sa RN4220 lethal	Bead autofluor	Mtb hypoxia rep	Mtb hypoxia rep growth	BJeLR viability	ugtP null kill	PrP 5UTR inh
- O=C(NCC1CCCO1)c1ccccc1-c1nc(-c2ccccc2)no1 (stereo unspecified)
  4.8	3854	/	/	/	4	-11
- Cc1cc(/C=C2\C(=O)NC(=O)N(c3ccc(Cl)cc3)C2=O)c(C)n1-c1sc2c(c1C#N)CCCC2
  -5.5	2790	9	10	-2	14	-18
- Cc1ccc(C(=O)C[n+]2cc(Br)cc(Br)c2)cc1[N+](=O)[O-]
  /	3540	/	/	-7	/	-44
- Cc1cc(C(c2nnnn2Cc2ccccc2)N2CCOCC2)c(C)n1-c1ccc2c(c1)OCO2 (stereo unspecified)
  7.4	10286	19	9	9	1	-7
- CCN(CC)C(=O)CSc1nc2ccccc2c(=O)n1CC1CCCCC1
  3.7	3272	5	11	-13	2	-2
- O=C(COC(=O)Cn1cnc2ccccc21)Nc1ccc(OC(F)F)cc1
  1.0	3182	-1	-1	/	-1	4
- Cc1ccc(-c2noc(CCC(=O)NC3CC3)n2)cc1
  3.8	3954	6	5	-7	9	-22
- CCCCOC(=O)/C=C\C(=O)OCCCC
  0.0	5711	/	/	3	-5	0
- CCOC(=O)N1CCC(NC(=O)c2cc3c(-c4ccc(Cl)cc4)nn(C)c3s2)CC1
  2.1	4930	/	/	/	3	-23
- CCOC(=O)C1=C(N)Oc2cc(C)n(CCc3ccc(OC)c(OC)c3)c(=O)c2C1c1cccnc1 (stereo unspecified)
  6.9	3183	4	6	6	-1	-4
- COc1ccc(CCNC(=O)CSc2n[nH]c(N)n2)cc1
  1.2	2972	-1	-1	-1	4	-18
- CCOC(=O)C1=CC(=C2C(=O)N(CC)C(=S)N(CC)C2=O)c2ccccc2O1
  5.5	/	12	2	9	5	/
- CN(CC(=O)Nc1c(Cl)cccc1Cl)C(=O)c1ccncc1
  2.4	6632	9	-4	-9	1	-14
- CN(CC(=O)Nc1ccc(F)c(F)c1F)C(=O)CCN1C(=O)C2CCCCC2C1=O (stereo unspecified)
  5.6	7777	7	-2	/	0	-22
- Cc1c(C)c2cc(Cl)c(O)c(CN(C)C)c2oc1=O
  -1.8	5660	-7	6	4	-3	-29
- O=C(Nc1ccc(Br)cc1)c1cccc(N2C(=O)C3CCCCC3C2=O)c1 (stereo unspecified)
  1.7	4273	12	-17	-11	16	-3
- CCCCOc1ccc(C(=S)N2CCC(C(N)=O)CC2)cc1
  3.9	1968	2	5	-6	6	-14
- COc1cc(C=NNC(=O)CN(Cc2ccccc2)S(=O)(=O)c2ccc3c(c2)OCCO3)ccc1O
  5.1	/	2	6	/	6	/
- COC(=O)c1cccc(Cn2nnc3ccccc3c2=O)c1
  -0.2	2611	/	/	9	-4	-23
- O=C(N1CCCCCC1)N1CCN(S(=O)(=O)N2CCCCC2)CC1
  -1.6	6523	/	/	-5	2	-16
- COc1ccc(/C=N/NC(=O)c2cc[n+]([O-])cc2)cc1OC
  /	3450	/	/	2	/	-3
- CCCCCn1nc(C(=O)OCc2nnc(-c3ccccc3)o2)c2ccccc2c1=O
  1.4	6495	0	-5	-6	1	-17
- Clc1ccc(CSc2nnc(CN3CCOCC3)n2-c2ccccc2)cc1Cl
  -2.5	2948	0	1	-2	-5	-44

In the list so far, these contain a nitro group on carbon.
Second line of a record – Sa RN4220 lethal	Bead autofluor	Mtb hypoxia rep	Mtb hypoxia rep growth	BJeLR viability	ugtP null kill	PrP 5UTR inh
- CCOC(=O)CCCCCN(Cc1ccccc1)S(=O)(=O)c1ccc([N+](=O)[O-])cc1
  0.8	2355	-6	-7	1	-5	-3
- O=C(CNC(c1ccccc1)c1ccccc1)Nc1cc([N+](=O)[O-])ccc1Cl
  -1.4	1945	1	1	3	35	-14
- Cc1ccc(C(=O)C[n+]2cc(Br)cc(Br)c2)cc1[N+](=O)[O-]
  /	3540	/	/	-7	/	-44
